# PTK2B oligo ant: antagonists of Pyk2 self-association, primary screen, Q293 cells, FERM NanoBiT luminescence, HTS. Protein-tyrosine kinase 2-beta (Homo sapiens), Q14289. AID 1347419, 2020. active compounds read low. z-score (the deposit names both 25 µM and 10 µM). 99,000 tested, 0.83% active;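 active means Z-score of -3 or lower, scaled per plate to the spread of control and sample wells; inactive means z-score above -3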;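 further: negative z-score means lost luminescence so less FERM oligomerization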
# PostGolgi yeast: phenotypic screen on post-Golgi transport, primary screen; inhibition, % at 10 µM; 98,000 tested, 0.9% active; post-Golgi transport phenotypic cell assay; in the data active means inhibition above about 30%;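 further: yeast cells grown in 1536-well plates; yeast grown about 18 h at 30C before absorbance read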
# PLAP activator: PLAP enzyme activators, biochemical, luminescence, HTS; AID 696, 2007; 96,000 tested, 1.2% active; purified PLAP enzyme, luminescent substrate read-out; active compounds read high; activation fold at 20 µM; in the data active means activation fold above about 2
# EphB4 antag: EphB4-ephrin-B2 interaction antagonists, primary screen, biochemical, TNYL-RAW peptide probe, fluorescence polarization. 97,000 tested, 0.15% active. Ephrin type-B receptor 4 (Homo sapiens), P54760. inhibition, % at 7 µM. EphB4 LBD / TNYL-RAW-Alexa532 peptide;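 active means inhibition above the screen-wide mean inhibition plus 3 SD, cut at about 15% in these data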;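 further: 0% = DMSO wells and 100% = excess unlabeled TNYL-RAW peptide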
# Target sequence (P54760 whole entry, looked up, the tested form may be a part): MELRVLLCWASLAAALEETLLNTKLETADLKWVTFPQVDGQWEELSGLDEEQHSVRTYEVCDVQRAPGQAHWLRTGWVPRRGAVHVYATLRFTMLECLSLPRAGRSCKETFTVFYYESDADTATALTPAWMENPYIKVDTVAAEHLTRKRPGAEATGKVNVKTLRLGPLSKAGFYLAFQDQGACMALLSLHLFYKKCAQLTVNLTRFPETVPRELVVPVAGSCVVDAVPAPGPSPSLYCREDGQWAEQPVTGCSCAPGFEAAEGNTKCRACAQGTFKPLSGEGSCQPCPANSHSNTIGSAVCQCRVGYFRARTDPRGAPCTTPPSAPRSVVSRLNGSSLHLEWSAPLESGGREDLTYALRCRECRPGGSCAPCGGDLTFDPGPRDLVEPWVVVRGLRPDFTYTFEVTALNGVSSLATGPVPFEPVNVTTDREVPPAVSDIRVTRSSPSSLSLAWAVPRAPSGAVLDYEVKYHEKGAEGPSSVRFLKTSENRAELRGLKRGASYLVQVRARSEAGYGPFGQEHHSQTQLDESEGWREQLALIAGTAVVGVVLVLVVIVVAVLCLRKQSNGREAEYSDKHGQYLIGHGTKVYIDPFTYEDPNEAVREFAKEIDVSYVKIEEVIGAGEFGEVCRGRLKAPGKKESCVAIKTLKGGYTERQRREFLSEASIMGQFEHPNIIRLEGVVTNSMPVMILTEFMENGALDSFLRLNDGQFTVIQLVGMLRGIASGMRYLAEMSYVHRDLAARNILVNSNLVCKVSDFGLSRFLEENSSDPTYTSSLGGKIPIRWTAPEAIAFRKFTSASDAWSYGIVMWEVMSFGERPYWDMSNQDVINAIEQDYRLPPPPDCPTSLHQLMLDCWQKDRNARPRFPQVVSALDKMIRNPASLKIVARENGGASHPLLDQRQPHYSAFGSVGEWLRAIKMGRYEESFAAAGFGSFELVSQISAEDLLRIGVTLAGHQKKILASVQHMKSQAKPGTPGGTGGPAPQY
# Ecoli WT expand: growth inhibitors of wild-type E. coli, primary screen, strain BW25113, expanded library, OD600; OD600 absorbance; growth inhibition, % at 100 µM; 98,000 tested, 0.15% active;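 active means growth inhibition above about 50% at one test dose, limit read from the data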;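 further: growth measured after 20 h incubation at 37 °C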
# The depositor's hits bear a star. A portion of the library. The share of hits here may be higher or lower than overall.
# Letters: A = PTK2B oligo ant; B = PostGolgi yeast; C = PLAP activator; D = EphB4 antag; E = Ecoli WT expand
[1] CS(=O)(=O)N1CCCC(C(=O)N2CCC3(CC2)OCCO3)C1 (stereo not drawn)
  A: 0.55; B: 7; C: 1.1; D: -2; E: -5

[2] Cc1oc(C(=O)Nc2ccc(O)cc2)cc1COc1ccccc1
  A: -0.64; B: -11; C: 0.9; D: -3; E: 1

[3] CNC(=S)NC1CC2CCCC(C1)N2CC(C)C (stereo not drawn)
  A: -0.23; B: 2; C: 1; D: 5; E: -7

[4] CCOC(C(=O)OCCCN(CC)CC)(c1ccccc1)c1ccccc1
  A: 0.88; B: -1; C: 1.3; D: -2; E: 17

[5] CCN1CCN(c2ccc(NC(=O)C(C)C)cc2Cl)CC1
  A: -0.42; B: 18; C: 1; D: 0; E: 3

[6] CC(NCc1ccc(Cl)cc1)C(O)c1ccccc1 (stereo not drawn)
  A: 0.31; B: -8; C: 1; D: 2; E: 7

[7] C(=NC12CN3CN(CN(C3)C1)C2)c1cccnc1
  A: -0.05; B: 2; C: 1.2; D: -1; E: 11

[8] CCOC(=O)c1c(NC(=O)c2c(N)n(CCCOC)c3nc4ccccc4nc23)sc2c1CCCC2
  A: -0.52; B: -19; C: 0.9; D: 2; E: -12

[9] O=C(Nc1ccc(Cl)cc1C(=O)c1ccccc1Cl)c1ccco1
  A: -1.6; B: 0; C: 1.2; D: -1; E: -10

[10] CC(C)(C)c1ccc(S(=O)(=O)N2CC3CC(C2)c2cccc(=O)n2C3)cc1 (stereo not drawn)
  A: -0.38; B: 16; C: 1.1; D: 0; E: -4

# Structural class: the entries above containing a carbonyl joined to an NH by a bond outside any ring.
# Letters: A = PTK2B oligo ant; B = PostGolgi yeast; C = PLAP activator; D = EphB4 antag; E = Ecoli WT expand
[2] Cc1oc(C(=O)Nc2ccc(O)cc2)cc1COc1ccccc1
  A: -0.64; B: -11; C: 0.9; D: -3; E: 1

[5] CCN1CCN(c2ccc(NC(=O)C(C)C)cc2Cl)CC1
  A: -0.42; B: 18; C: 1; D: 0; E: 3

[8] CCOC(=O)c1c(NC(=O)c2c(N)n(CCCOC)c3nc4ccccc4nc23)sc2c1CCCC2
  A: -0.52; B: -19; C: 0.9; D: 2; E: -12

[9] O=C(Nc1ccc(Cl)cc1C(=O)c1ccccc1Cl)c1ccco1
  A: -1.6; B: 0; C: 1.2; D: -1; E: -10
